Screening data deposited in PubChem by National Center for Advancing Translational Sciences (NCATS).
2A StopGo: lowers the luciferase signal of an FMDV 2A StopGo reporter; AID 1159524; Potency, µM (series often up to 57.9 µM), inactives show at the highest dose signal change, negative = less light; 410,000 tested, 1.2% active; human cells with a luciferase reporter of 2A StopGo recoding; control for the full effect not named in the record; active = well fitted falling curve with a large enough effect; inconclusive = small, poorly fitted or top-dose-only effect; inactive = no such curve, though single readings can be large or run the other way; tested in HEK293T cells; note: % is set by controls: 0 for no effect and ±100 for the full control effect; nearly all actives have a fitted effect of over 45% in size; luciferase light after 4 h
LASV entry inh: Lassa virus entry inhibition; Lassa virus pseudotype entry inhibition, cell reporter; control for the full effect not named in the record; Potency, µM (doses to about 37.9 µM), for inactives: at the top dose activity change, negative = inhibition, usual class: inhibitors; 300,000 tested, 1.2% active; active means well fitted inhibition curve with a large enough effect; inconclusive means small, poorly fitted or top-dose-only effect, or effect the other way; inactive means flat fitted curve, though single readings scatter; tested in HEK293 cells; note: % is set by controls: 0 for no effect and ±100 for the full control effect; nearly all actives have a fitted effect of over 50% in size; luciferase read-out
SARS PLpro yeast: inhibitors of SARS-CoV papain-like protease in yeast. S. cerevisiae expressing SARS-CoV PLpro, growth rescue; control for the full effect not named in the record. Potency, µM (series often up to 32.9 µM), for the others: at the highest dose activity, positive = growth rescue. 330,000 tested, 0.19% active; active means well fitted rising curve with a large enough effect; inconclusive means small, poorly fitted or top-dose-only effect; inactive means no such curve, though single readings can be large or run the other way; note: 0% is about no effect; nearly all actives have a fitted effect of over 55% in size; growth read by luminescence after 48 h
RE007 growth inh: less growth of the S. pombe RE007 Vpr strain; S. pombe RE007 Vpr strain, BacTiter-Glo ATP luminescence, 24 h; control for the full effect not named in the record; Potency, µM (highest dose often 92.2 µM), without a hit: top-dose activity change, negative = less growth; 360,000 tested, 0.21% active; AID 651644; active = well fitted falling curve with a large enough effect; inconclusive = small, poorly fitted or top-dose-only effect; inactive = no such curve, though single readings can be large or run the other way;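 note: % is set by controls: 0 for no effect and ±100 for the full control effect; nearly all actives have a fitted effect of over 50% in size; the assay follows cell death caused by Vpr and the record does not say whether a fall means rescue or toxicity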
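Fission yeast strain RE007, carrying one chromosomally integrated HIV-1 vpr copy, was seeded at OD 0.01 in PMG+AL medium with 23 nL pinned compound. After 24 h at 30 °C and 99% humidity, viability was read by BacTiter-Glo luminescence.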
* hit, by the source's call; [ ] = another dose, or the depositor's remark. Potency is the fitted concentration of half-maximal effect. An excerpt; the hit share may differ from the screen's.

For COc1cc(/C=C/C(=O)OCC(=O)NCC(=O)Nc2cccc(C)c2C)ccc1OC(F)F the results were 2A StopGo -10.0%, SARS PLpro yeast -2.4% and RE007 growth inh 4.8%.
`O=C(COC(=O)c1cc(S(=O)(=O)N2CCCC2)ccc1O)Nc1ccc(SC(F)F)cc1` gave 2A StopGo inconclusive, SARS PLpro yeast -7.7% and RE007 growth inh 4.8%.
`COc1ccccc1C(=O)NC(=O)COC(=O)c1oc2ccccc2c1C` gave 2A StopGo -8.3%, SARS PLpro yeast 4.8% and RE007 growth inh -1.2%.
Screening CC(=O)C[C@@H](O)CC(=O)[C@@H]1OC(=O)[C@@H](C)CCCCc2ccccc21 returned 2A StopGo -11.9%, SARS PLpro yeast -1.7% and RE007 growth inh 5.2%.
`COc1ccc(NC(=O)N(C)C[C@H]2Oc3ccc(NC(=O)CCN4CCOCC4)cc3C(=O)N([C@@H](C)CO)C[C@H]2C)cc1` gave 2A StopGo -9.0%, SARS PLpro yeast 7.2% and RE007 growth inh -8.0%.
`O=C(NCc1cccc2ccccc12)c1cccs1` gave 2A StopGo 46.2%[activator], SARS PLpro yeast 0.5% and RE007 growth inh inconclusive.
`O=C(O)Cc1sc(Nc2cccc3ccccc23)nc1-c1ccccc1` gave 2A StopGo 4.8%, SARS PLpro yeast 9.9% and RE007 growth inh -0.4%.
`Cc1ccc2c(c1)nc(-n1nc(C)cc1C)c1nnnn12` gave 2A StopGo 0.8%, SARS PLpro yeast -3.6% and RE007 growth inh 12.3%.
`O=C(NCC(=O)N1CCCC(C(F)(F)F)C1)c1ccco1` (stereo not drawn) gave 2A StopGo 4.8%, SARS PLpro yeast 5.0% and RE007 growth inh 6.3%.
For Cc1ccccc1CSc1nnc2ccc(-c3ccncc3)nn12 the results were 2A StopGo -2.9%, SARS PLpro yeast -0.9% and RE007 growth inh -2.6%.
Screening COc1ccccc1-n1cnnc1SCC(=O)NC1CCCCC1 returned 2A StopGo -8.6%, SARS PLpro yeast -6.2% and RE007 growth inh -14.2%.
For Cc1ccccc1C(=O)NCC(=O)NNC(=O)c1cccc(Cl)c1 the results were 2A StopGo 1.8%, SARS PLpro yeast -1.1% and RE007 growth inh 4.2%.
COc1cc2sc(-c3ccc(S(C)(=O)=O)cc3)c(C#CCO)c2cc1OC was read as 2A StopGo -2.3%, SARS PLpro yeast 4.3% and RE007 growth inh -3.0%.
`CCN(C[C@H]1N[C@@](CC)(C(=O)OC)[C@H]2C(=O)N(C)C(=O)[C@@H]12)S(=O)(=O)c1ccccc1` gave 2A StopGo -19.6%, SARS PLpro yeast 0.8% and RE007 growth inh -9.5%.
For Cc1ccc(-c2nc(CC(=O)Nc3cccc(S(=O)(=O)NC4=NCCC4)c3)cs2)cc1 the results were 2A StopGo 9.5%, SARS PLpro yeast -3.5% and RE007 growth inh -4.8%.
For COc1cccc(-n2c(=S)[nH]c3c(oc4ccccc43)c2=O)c1 the results were 2A StopGo 37.7%[activator], SARS PLpro yeast 0.2% and RE007 growth inh 7.5%.
NC(=O)c1ccc(NC(=O)COC(=O)c2ccc3c(c2)OCO3)cc1 was read as 2A StopGo -12.3%, SARS PLpro yeast 0.1% and RE007 growth inh 14.1%.
`CNC(=S)N/N=C(\C)c1ccc2c(c1)OCO2` gave 2A StopGo -0.5%, SARS PLpro yeast 21.7% and RE007 growth inh 14.1%.
`COc1ccc(NC(=O)COC(=O)CC2CCCCC2)cc1` gave 2A StopGo -7.5%, SARS PLpro yeast -0.5% and RE007 growth inh -16.3%.
`CCCCN1CC(=O)N2[C@H]3c4ccc(OC)cc4OC[C@@H]3[C@H](C(=O)OCC)[C@]2(C)C1=O` gave 2A StopGo -16.0%, SARS PLpro yeast 10.6% and RE007 growth inh -4.8%.
For COc1ccc(C2=NN(C(=O)c3cccs3)C(c3ccccc3O)C2)cc1 (stereo not drawn) the results were 2A StopGo -10.9%, SARS PLpro yeast -7.1% and RE007 growth inh 7.2%.
COc1ccc(CNC(=O)COC(=O)c2ccc(S(=O)(=O)NCc3ccco3)cc2)cc1 was read as 2A StopGo -12.3%, SARS PLpro yeast -0.6% and RE007 growth inh -4.2%.
`O=C(Nc1ccccc1)c1nc[nH]c1C(=O)NCCNC(=O)c1[nH]cnc1C(=O)Nc1ccccc1` gave 2A StopGo inconclusive, SARS PLpro yeast 9.1% and RE007 growth inh -8.0%.
O=C(CSc1nnc(COc2ccccc2Cl)o1)Nc1ccccc1 was read as 2A StopGo -2.0%, SARS PLpro yeast -1.6% and RE007 growth inh -0.6%.
`CC(=O)c1ccc(NC(=O)COC(=O)CC2CC3CCC2C3)cc1` (stereo not drawn) gave 2A StopGo -9.4%, SARS PLpro yeast 0.8% and RE007 growth inh -9.5%.
For Cc1cc(C)cc(C(=O)NCC(=O)N(C)CCOc2ccccc2)c1 the results were 2A StopGo -21.3%, SARS PLpro yeast -0.5% and RE007 growth inh -5.0%.
Screening Cc1ccc(OCCC(=O)OCC(=O)NC2CCCC(C)C2C)cc1 (stereo not drawn) returned 2A StopGo -8.3%, SARS PLpro yeast -2.6% and RE007 growth inh -0.7%.
Screening CCC(CO)Oc1cc(NC(=O)c2ccccc2F)c2ncn(C(C)C)c2c1 (stereo not drawn) returned 2A StopGo -13.5%, SARS PLpro yeast -33.8% and RE007 growth inh -1.5%.
For CN(CC(=O)Nc1ccccc1Cl)C(=O)CN1C(=O)C2CC=CCC2C1=O (stereo not drawn) the results were 2A StopGo -21.1%, SARS PLpro yeast 0.7% and RE007 growth inh -3.8%.
For CCOc1ccccc1OCC(=O)Nc1cccc(S(=O)(=O)NC2=NCCCCC2)c1 the results were 2A StopGo -8.2%, SARS PLpro yeast -0.6% and RE007 growth inh -0.2%.
For CCOc1cc(C(=O)Nc2cc(OC)cc(OC)c2)ccc1OCC(=O)N1CCOCC1 the results were 2A StopGo -5.8%, SARS PLpro yeast 1.5% and RE007 growth inh 1.8%.
Screening Cc1ccc(S(=O)(=O)N2CCN(C(=O)CN3C(=O)c4ccccc4C3=O)CC2)c(C)c1 returned 2A StopGo -8.7%, SARS PLpro yeast -4.1% and RE007 growth inh 1.4%.
`CCCc1nc2ccccc2c(C(=O)OCC(=O)NC2CC2)c1CC` gave 2A StopGo inconclusive, SARS PLpro yeast 0.1% and RE007 growth inh 2.2%.
Screening Cc1ccc(CNc2ccc3c(c2)ncn3C(C)(C)C)cc1 returned 2A StopGo 3.5%, SARS PLpro yeast 5.4% and RE007 growth inh -2.3%.
Screening C#CCOCCOCCOCCNc1nc(N2CCN(C(=O)[C@H]([C@@H](C)O)n3cc(CCCCN)nn3)CC2)nc(N2CCN(C(=O)[C@H](CCCCN)n3cc(CCCC)nn3)CC2)n1 returned 2A StopGo -11.8%, SARS PLpro yeast -9.3% and RE007 growth inh 8.7%.
Screening O=C(NCc1ccc2c(c1)OCO2)c1c(O)nc2sccn2c1=O returned 2A StopGo 9.1%, SARS PLpro yeast 2.3% and RE007 growth inh -5.9%.
`COC(=O)C1=C(c2ccc(F)cc2F)C[C@@H]2CC[C@H]1N2C(=O)NC(C)C` gave 2A StopGo 0.0%, SARS PLpro yeast -0.6% and RE007 growth inh -8.0%.
CCOC(=O)c1c(C)[nH]c(C)c1C(=O)COC(=O)/C=C/c1ccccc1[N+](=O)[O-] was read as 2A StopGo -8.0%, SARS PLpro yeast -1.0% and RE007 growth inh -5.7%.
For CCCCNC(=O)C(C)N(CCN(C)C)C(=O)CCCN1C(=O)NC(c2ccc(Cl)cc2)C(C(=O)OCc2ccccc2)=C1C (stereo not drawn) the results were 2A StopGo -1.8%, SARS PLpro yeast -15.7% and RE007 growth inh -3.2%.
`O=C(c1cn(-c2ccccc2)nc1-c1cccnc1)N1CCN(S(=O)(=O)c2ccccc2F)CC1` gave 2A StopGo -16.0%, SARS PLpro yeast 1.9% and RE007 growth inh 1.8%.
`CCOC(=O)[C@H]1[C@H]2COc3ccc(OC)cc3[C@@H]2N2C(=O)CN(CC3CCCO3)C(=O)[C@@]12C` (stereo partly drawn) gave 2A StopGo -3.6%, SARS PLpro yeast -14.2% and RE007 growth inh 4.6%.
Screening OCC[C@H]1C[C@H](O)[C@@H](O)[C@]2(Cc3ccccc3O2)O1 returned 2A StopGo 16.1%, SARS PLpro yeast -1.3% and RE007 growth inh 10.8%.
Screening CC(=O)c1cccc(NC(=O)CSc2n[nH]c(-c3ccncc3)n2)c1 returned 2A StopGo -3.7%, SARS PLpro yeast -5.0% and RE007 growth inh 8.0%.
`O=C(COC(=O)c1cc[n+]([O-])cc1)Nc1ccc(Cl)c(C(F)(F)F)c1` gave 2A StopGo -18.0%, SARS PLpro yeast -1.8% and RE007 growth inh 15.2%.
Screening CC(NC(=O)COC(=O)c1ccc(N2CCCC2=O)cc1)c1ccc(F)cc1 (stereo not drawn) returned 2A StopGo -8.8%, SARS PLpro yeast 3.8% and RE007 growth inh 1.3%.
Screening O=C(Nc1ccc(C(=O)N2CCCC2)cc1)C1CCCCC1 returned 2A StopGo 19.3%, LASV entry inh inconclusive and RE007 growth inh -4.0%.
For COCCN(CCOC)Cc1cc(=O)oc2cc(C)cc(C)c12 the results were 2A StopGo 2.9%, LASV entry inh inconclusive and RE007 growth inh 4.4%.
Cn1ccc2c(N3CCOCC3)cc3c(c21)C1CCC3C1 (stereo not drawn) was read as 2A StopGo -5.4%, LASV entry inh inconclusive and RE007 growth inh -22.3%.
Screening CC(C)C1C(=O)N(Cc2cn(CCC3OCCO3)nn2)CCS(=O)(=O)N1Cc1ccc(-c2ccncc2)cc1 (stereo not drawn) returned 2A StopGo 0.0%, LASV entry inh inconclusive and RE007 growth inh 1.0%.
CC1C(=O)N(Cc2cn(CCC3OCCCO3)nn2)CCS(=O)(=O)N1Cc1ccc(-c2cccc(N(C)C)c2)cc1 (stereo not drawn) was read as 2A StopGo 4.7%, LASV entry inh -3.6%[46.1 µM] and RE007 growth inh -2.0%.
Cc1cccc(CN2CCN(C3CN(Cc4cn(Cc5ccccc5F)nn4)S(=O)(=O)C3)CC2)c1 (stereo not drawn) was read as 2A StopGo -17.7%, LASV entry inh inconclusive and RE007 growth inh -7.7%.
For CC1C(=O)N(Cc2cn(Cc3ccco3)nn2)CCS(=O)(=O)N1Cc1ccc(-c2ccccc2C(F)(F)F)cc1 (stereo not drawn) the results were 2A StopGo -14.2%, LASV entry inh -13.8%[46.1 µM] and RE007 growth inh 7.3%.
COc1ccc([C@H]2C[C@@H](n3cc(-c4ccc(F)cc4)nn3)[C@H](O)CN2CC2CCCCC2)cc1 was read as 2A StopGo 12.8%, LASV entry inh 3.7%[46.1 µM] and RE007 growth inh 3.7%.
For Cc1ccc([C@H]2C[C@@H](O)[C@H](n3cc(COC(=O)c4ccccc4)nn3)CN2C(=O)C2CCCCC2)cc1 the results were 2A StopGo -24.0%, LASV entry inh inconclusive and RE007 growth inh -4.2%.
Screening COc1ccc(N2C[C@H](C)[C@@H](CC(=O)Nc3ccccc3)C2=O)cc1 returned 2A StopGo -3.7%, LASV entry inh inconclusive and RE007 growth inh -17.1%.
COc1ccc([C@H]2C[C@H](n3cc(COC(=O)c4ccccc4)nn3)[C@@H](O)CN2C(=O)c2cccs2)cc1 was read as 2A StopGo 6.0%, LASV entry inh 2.9%[46.1 µM] and RE007 growth inh 20.5%.
`O=C(N1CCOCC1)N1[C@H](COCc2ccccc2)C=CS1(=O)=O` gave 2A StopGo inconclusive, LASV entry inh inconclusive and RE007 growth inh 7.1%.
`Cn1ccc2c(-c3ccc(C(C)(C)C)cc3)cc3c(c21)C1CCC3O1` (stereo not drawn) gave 2A StopGo 4.7%, LASV entry inh inconclusive and RE007 growth inh 2.9%.

Sorted by SMILES length (ascending): some entries from above.
Screening CC(C)C1C(=O)N(Cc2cn(CCC3OCCO3)nn2)CCS(=O)(=O)N1Cc1ccc(-c2ccncc2)cc1 (stereo not drawn) returned 2A StopGo 0.0%, LASV entry inh inconclusive and RE007 growth inh 1.0%.
CC1C(=O)N(Cc2cn(CCC3OCCCO3)nn2)CCS(=O)(=O)N1Cc1ccc(-c2cccc(N(C)C)c2)cc1 (stereo not drawn) was read as 2A StopGo 4.7%, LASV entry inh -3.6%[46.1 µM] and RE007 growth inh -2.0%.
For Cc1ccc([C@H]2C[C@@H](O)[C@H](n3cc(COC(=O)c4ccccc4)nn3)CN2C(=O)C2CCCCC2)cc1 the results were 2A StopGo -24.0%, LASV entry inh inconclusive and RE007 growth inh -4.2%.
